KCNQ2 inh – KCNQ2 potassium channel inhibitors, primary screen, cell-based, CHO-K1, FluxOR thallium flux, B-score (AID 2156) | 310,000 compounds, 1.1% hits | 20 min; stronger effect = lower value; only compounds with negative scores are shown here; some inactives read as strong as hits | B-score at 10 µM | Potassium voltage-gated channel subfamily KQT member 2 (Rattus norvegicus), O88943;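 active = fluorescence ratio B-score at most minus 3 library SDs, with starting brightness B-score within 2 library SDs, cut at about -5.5 in these data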
Target sequence (O88943 whole entry, looked up): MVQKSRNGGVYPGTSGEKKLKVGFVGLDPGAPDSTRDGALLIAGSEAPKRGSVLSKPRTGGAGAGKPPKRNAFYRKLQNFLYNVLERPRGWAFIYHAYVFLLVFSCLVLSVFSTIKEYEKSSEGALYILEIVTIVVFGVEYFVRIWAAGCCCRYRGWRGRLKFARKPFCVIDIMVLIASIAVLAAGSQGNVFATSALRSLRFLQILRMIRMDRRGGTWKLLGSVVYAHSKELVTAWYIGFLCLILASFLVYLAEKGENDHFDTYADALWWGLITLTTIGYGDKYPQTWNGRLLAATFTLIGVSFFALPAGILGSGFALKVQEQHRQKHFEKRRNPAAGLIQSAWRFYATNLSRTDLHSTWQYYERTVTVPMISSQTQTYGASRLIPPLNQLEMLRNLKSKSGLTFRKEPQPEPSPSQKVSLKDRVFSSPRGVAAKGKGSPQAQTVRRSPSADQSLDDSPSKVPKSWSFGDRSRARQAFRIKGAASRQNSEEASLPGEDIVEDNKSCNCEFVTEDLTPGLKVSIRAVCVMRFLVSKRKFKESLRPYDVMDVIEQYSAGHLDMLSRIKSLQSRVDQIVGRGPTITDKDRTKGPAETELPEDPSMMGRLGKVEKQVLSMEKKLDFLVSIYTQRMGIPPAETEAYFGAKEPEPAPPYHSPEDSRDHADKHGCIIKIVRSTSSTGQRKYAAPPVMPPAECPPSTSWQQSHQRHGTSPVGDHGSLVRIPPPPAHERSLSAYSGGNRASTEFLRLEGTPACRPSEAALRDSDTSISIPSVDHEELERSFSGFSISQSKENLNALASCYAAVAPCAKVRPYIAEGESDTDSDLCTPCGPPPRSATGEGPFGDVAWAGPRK
KCNQ2 inh baseline – second read-out of KCNQ2 inh, no call of its own (marks repeat the call); B-score; measured here: initial fluorescence intensity artifact check;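 brightness before thallium and not channel activity; 0 = typical well and far values either way flag optical interference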
* = called active by the depositor; i = inactive.

KCNQ2 inh baseline	KCNQ2 inh	SMILES
-0.38	i	Cc1ccc(CNC(=O)c2ccc3c(=O)[nH]c4c(C(=O)NCC5CCCO5)sc(=S)n4c3c2)cc1 (configuration not stated)
0.92	i	CC1=NN(c2ccc(C(=O)O)cc2)C(=O)/C1=C\c1ccc(OC(=O)c2cccs2)cc1
-0.88	i	CCCN1CCN(CCCNC(=O)c2ccccc2NC(=O)C2=C(C)OCCS2)CC1
0.17	i	COc1cccc(N2CCN(C(C)C(=O)NC34CC5CC(CC(C5)C3)C4)CC2)c1 (configuration not stated)
-0.52	i	CCOC(=O)c1c(C)[nH]c(C)c1S(=O)(=O)NCC1CCN(Cc2cccc(F)c2)CC1
1.3	i	C=CCNC(=O)C(=O)c1cccn1-c1ccsc1C(=O)OC
-0.41	i	CCCCNC(=O)C1c2ccccc2C(=O)N(c2ccc(OC)cc2)C1c1ccc(OC)cc1 (configuration not stated)
1.2	i	COc1ccc(N(C(=O)c2ccco2)C(C(=O)NC2CCCCC2)c2cccs2)cc1OC (configuration not stated)
-1.7	i	CCOC(=O)c1c(C)n(C)c2ccc(OC)c(NC(=O)CN3CCSCC3)c12
-0.03	i	Cc1cc(C)n(CNc2nc(C(F)(F)F)cs2)n1

Brought forward from above: 2 entries, followed by the next part.
KCNQ2 inh baseline	KCNQ2 inh	SMILES
-1.7	i	CCOC(=O)c1c(C)n(C)c2ccc(OC)c(NC(=O)CN3CCSCC3)c12
-0.03	i	Cc1cc(C)n(CNc2nc(C(F)(F)F)cs2)n1
0.17	i	O=C(CSc1nccc(=O)[nH]1)Nc1ccc(F)c([N+](=O)[O-])c1
1.1	i	CC(C)(C)NC(=O)C(c1ccncc1)N(Cc1cccs1)C(=O)Cn1nnc(-c2cccs2)n1 (configuration not stated)
0.34*	-5.8*	CCC(=Nc1ccccc1OC)C1=C(O)CC(c2ccccc2)CC1=O (configuration not stated)
0.12	i	COc1ccc(NCCC#N)cc1
-1.5	i	CCN(CC)CCCCCOc1ccccc1OC
0.15	i	COc1ccc(C2C=C(c3ccccc3)Nc3nnnn32)cc1 (configuration not stated)
-0.1	i	S=C(Nc1ccccc1)Nc1cc(Cl)ccc1Oc1ccccc1
-2.3	i	O=C(Cc1ccccc1)N1CCCC(c2nc(-c3cccs3)no2)C1 (configuration not stated)
-0.59	i	Cc1nn(C)c(C)c1N=Cc1c(O)ccc2ccccc12
-1.8	i	C=C(Cl)COC(=O)[C@H]1C2C=CC(C2)C1C(=O)O (some centres not stated)

KCNQ2 inh baseline	KCNQ2 inh	SMILES
1	i	O=C1C2C3C=CC(C3)C2C(=O)N1c1ccc(Cc2ccncc2)cc1 (configuration not stated)
-0.22	i	Cc1cccc(NC(=O)NNC(=O)c2ccc3ccccc3c2O)c1
-0.08	i	COc1ccc(NC(=S)NCCSc2ccc(Cl)cc2)c(OC)c1
-0.16	i	O=C(CSc1nc2ccccc2[nH]1)N=Nc1c(O)[nH]c2ccccc12
-0.07	i	O=C1c2ccccc2NC(c2cccc(F)c2)N1Cc1ccco1 (configuration not stated)
-1.1	i	CC/C(=N/Nc1ccccc1Cl)c1cnnc(-c2ccccc2)n1
0.58	i	O=C(c1ccc(-c2cccc(C(F)(F)F)c2)o1)N1CCCC(C(F)(F)F)C1 (configuration not stated)
0.32	i	CCOc1ccccc1NC(=O)c1ccc2c(=O)n3c(nc2c1)CCCCC3
-0.01	i	Cc1cc(C)nc(NC(=O)c2c(-c3ccccc3Cl)noc2C)c1
0.95	i	O=C(COc1ncnc2sccc12)N1CCc2ccccc2C1

KCNQ2 inh baseline	KCNQ2 inh	SMILES
0.05	i	CCc1nnc(NC(=O)CSc2nc3cc4c(cc3cc2CC)OCCO4)s1
-0.93*	-9.7*	O=C(NCC(c1ccco1)N1CCc2ccccc2C1)c1ccc(Br)cc1 (configuration not stated)
0.4	i	COCCN(C(=O)COC(=O)CCc1nc2ccccc2s1)c1c(N)n(Cc2ccccc2)c(=O)[nH]c1=O
-1.4	i	O=C(c1ccc(Br)cc1)c1cn[nH]c1-c1ccccc1O
0.37	i	Cc1ccc(N=C2CCCCCN2C)c(C#N)c1
-0.23	i	CN(C)C(=O)CSc1n[nH]c(=O)[nH]c1=O
-0.39	i	CCCOC(=O)C1C2C=CC3(CN(c4cccc(Cl)c4)C(=O)C13)O2 (configuration not stated)
0.05	i	COc1ccc(OCC(=O)NC(=S)N2CCCc3ccccc32)cc1
0.71	i	Cc1cccc(NC(=O)CN2CCSc3ccccc32)c1
-0.24	i	CN(C1CCS(=O)(=O)C1)S(=O)(=O)c1ccc2ccccc2c1 (configuration not stated)

KCNQ2 inh baseline	KCNQ2 inh	SMILES
-1.9	i	O=C1CCC(C(=O)N(CCO)Cc2ccccc2)CN1CCCN1CCOCC1 (configuration not stated)
-0.04	i	CC(=O)c1c(C)[nH]c(=S)c(C#N)c1-c1ccc(Cl)cc1
-4.1	i	Cc1ccc(N(CC(O)Cn2nc(C)cc2C)S(=O)(=O)c2ccc3ccccc3c2)cc1 (configuration not stated)
-0.28	i	Cc1cc(C)nc(N/N=C/C2=C(N3CCOCC3)C(=C\c3ccc(Cl)cc3)/CC2)n1
3.7	i	COc1ccc(N2CC(NC(=O)N3CCc4ccccc43)CC2=O)cc1OC (configuration not stated)
-0.22	i	O=S(=O)(NCCN1CCCC1)c1ccc(Cl)cc1
-0.86	i	Nc1cccnc1S(=O)(=O)c1cccc(C(F)(F)F)c1
0.9	i	COc1n[nH]c(C(=O)NCc2ccccc2)c1[N+](=O)[O-]
-0.12*	-6.6*	CN1CCc2ccccc2C1Cc1ccccc1NC(=O)c1sc2ccccc2c1Cl (configuration not stated)
0.69	i	COc1ccccc1CN1CC(C(=O)N(C)Cc2nc(C)cs2)CCC1=O (configuration not stated)

KCNQ2 inh baseline	KCNQ2 inh	SMILES
0.18	i	Oc1cccc2cnccc12
-1.7	i	CCN(CC)S(=O)(=O)c1ccc(OC)c(NC(=O)c2ccc3c(c2)OCO3)c1
-1.9	i	O=C(NCCc1ccccc1)Nc1ccc2c(c1)OCO2
-1.4	i	Cc1c(C(=O)NCC(c2ccco2)N2CCCC2)oc2ccc(Cl)cc12 (configuration not stated)
-0.01	i	CCn1cc(C(=O)N2CCCCC2)c(=O)c2cc(S(=O)(=O)N3CCC(C)CC3)ccc21
-0.18	i	O=C(OCCOc1ccc(Br)cc1)c1ccc(Cl)nc1
-0.77	i	Cc1cc(-c2ccccc2)nc(N(C)NC(=O)c2c(F)cccc2F)c1S(C)(=O)=O
0.29	i	CCC(NC(=O)COc1cc2c(c3oc(=O)c(C)c(C)c13)CCC(C)(C)O2)C(=O)O (configuration not stated)
-0.39	i	CCC(Sc1nc(-c2ccccc2)c(C#N)c(=O)[nH]1)C(=O)Nc1nnc(C)s1 (configuration not stated)
-1.2	i	O=C(NNc1ccccc1[N+](=O)[O-])Nc1cccc(Cl)c1

KCNQ2 inh baseline	KCNQ2 inh	SMILES
3.3	i	CC(=O)Nc1ccc(NS(=O)(=O)c2ccc3[nH]c(=O)[nH]c3c2)cc1
-0.04	i	COC(=O)c1ccc(Cn2nc(C)c(Br)c2C)cc1
-0.59	i	COc1ccc(/C=N\NC(=O)c2sccc2C)cc1Cn1nc(C)cc1C
-0.13	i	Cc1ccc(S(=O)(=O)n2ccnc2)cc1C
0.34	i	COc1ccc(-n2nc(C(=O)NCC(=O)N3CCOCC3)c3ccccc3c2=O)c(OC)c1
2.4	i	C/C(CC(=O)Nc1ccc(Cl)cc1Cl)=N\NC(N)=S
-0.63	i	C=CCCC1(C)C(=O)N(c2ccccc2)c2ccccc21 (configuration not stated)
-0.06	i	COc1cccc(/C(C)=N/NC(=O)c2cc(-c3cccnc3)nc3ccccc23)c1
1.1	i	COc1ccc(Cn2nnnc2C(c2ccccn2)N2CCN(c3cc(Cl)ccc3C)CC2)cc1 (configuration not stated)
1.8	i	Cc1ccc(N2CCN(C(=O)Nc3cccc([N+](=O)[O-])c3)CC2C)cc1 (configuration not stated)

KCNQ2 inh baseline	KCNQ2 inh	SMILES
-0.08	i	Clc1ccccc1/C=C/c1nc(-c2ccccn2)no1
-0.14	i	CCc1ccccc1-n1nnnc1-c1cnccc1C(F)(F)F
0.04	i	CCOc1ccc(C(=O)CN2CCN(S(=O)(=O)c3ccc(Br)cc3)CC2)cc1
-3	i	C=C(C)CN(CC)C(=O)CCc1nnc(CCc2c[nH]c3ccccc23)o1
-3	i	O=C(N/C(=C\c1ccco1)C(=O)N1CCC(O)CC1)c1ccccc1
-0.72	i	CCn1c(=O)cc(OCC(=O)NCCc2cccc(C)c2)c2ccccc21
2.5	i	Cc1ccc(-n2c(N)c(C(=O)Nc3c(C)n(C)n(-c4ccccc4)c3=O)c3nc4ccccc4nc32)cc1C
0.27	i	Cc1ccc(Cl)c(NC(=O)COC(=O)CNS(=O)(=O)/C=C/c2ccccc2)c1Cl
0.6	i	Cc1ccc(S(=O)(=O)N2CCN(C(=O)COC(=O)/C=C/c3ccccc3[N+](=O)[O-])CC2)c(C)c1
-0.24*	-6.5*	COc1ccc(CCNC(=O)COc2ccc(N(C)S(=O)(=O)c3ccc(Cl)cc3)cc2)cc1

A run of entries of the results above, for reference:
KCNQ2 inh baseline	KCNQ2 inh	SMILES
-0.13	i	Cc1ccc(S(=O)(=O)n2ccnc2)cc1C
0.34	i	COc1ccc(-n2nc(C(=O)NCC(=O)N3CCOCC3)c3ccccc3c2=O)c(OC)c1
2.4	i	C/C(CC(=O)Nc1ccc(Cl)cc1Cl)=N\NC(N)=S
-0.63	i	C=CCCC1(C)C(=O)N(c2ccccc2)c2ccccc21 (configuration not stated)
-0.06	i	COc1cccc(/C(C)=N/NC(=O)c2cc(-c3cccnc3)nc3ccccc23)c1
1.1	i	COc1ccc(Cn2nnnc2C(c2ccccn2)N2CCN(c3cc(Cl)ccc3C)CC2)cc1 (configuration not stated)
1.8	i	Cc1ccc(N2CCN(C(=O)Nc3cccc([N+](=O)[O-])c3)CC2C)cc1 (configuration not stated)
-0.08	i	Clc1ccccc1/C=C/c1nc(-c2ccccn2)no1
-0.14	i	CCc1ccccc1-n1nnnc1-c1cnccc1C(F)(F)F
0.04	i	CCOc1ccc(C(=O)CN2CCN(S(=O)(=O)c3ccc(Br)cc3)CC2)cc1
-3	i	C=C(C)CN(CC)C(=O)CCc1nnc(CCc2c[nH]c3ccccc23)o1
-3	i	O=C(N/C(=C\c1ccco1)C(=O)N1CCC(O)CC1)c1ccccc1
-0.72	i	CCn1c(=O)cc(OCC(=O)NCCc2cccc(C)c2)c2ccccc21
2.5	i	Cc1ccc(-n2c(N)c(C(=O)Nc3c(C)n(C)n(-c4ccccc4)c3=O)c3nc4ccccc4nc32)cc1C

(list continues)
KCNQ2 inh baseline	KCNQ2 inh	SMILES
-0.74	i	COCCN(Cc1cccs1)S(=O)(=O)c1csc(C(N)=O)c1
-1.1	i	Cc1cc(=O)oc2c(C)c(OCC(=O)N3CCN(C(=O)C4COc5ccccc5O4)CC3)ccc12 (configuration not stated)
-1.1	i	COc1cccc(NC(=O)CN(c2ccc3c(c2)OCO3)S(C)(=O)=O)c1
1.5	i	CCOC(=O)CN1C(=O)N[C@@H](CCc2ccccc2)[C@H](C(C)=O)[C@H]1C
-0.55	i	CN(c1ccccc1)S(=O)(=O)c1ccc(Cl)c(C(=O)NCCc2c[nH]c3ccccc23)c1
0.52	i	CCCC(C(=O)NCC1CCCO1)N(Cc1ccccc1)C(=O)CNS(=O)(=O)c1ccccc1 (configuration not stated)
0.19	i	CCC(=O)Nc1c(S(=O)(=O)c2ccccc2)c2nc3ccccc3nc2n1C(C)c1ccccc1 (configuration not stated)
-0.26	i	CCCn1c(SCc2nc(-c3cccs3)no2)nnc1-c1ccncc1
1.6	i	COC(=O)c1ccccc1N1CCS(=O)(=O)CC1
-0.92	i	O=C(O)CCC(=O)Nc1ccc(N2CCCCCC2)cc1

KCNQ2 inh baseline	KCNQ2 inh	SMILES
0.77	i	CS(=O)(=O)N(CC(=O)N1CCc2ccccc2C1)c1cccc(Br)c1
-1.8	i	O=C(CNC(=O)OCc1ccccc1)NC1CCCCCC1
-2	i	CCC(Oc1ccccc1)C(=O)N1CCN(CC)CC1 (configuration not stated)
-0.67	i	CCOC(=O)c1ccc(NC(=O)C2(c3ccc(OC)cc3)CCCC2)cc1
-0.58	i	Nc1nc(C2CC2)c(Sc2sc(N)nc2C2CC2)s1
1.6	i	Cc1cc(=O)[nH]c2c(C)cc(S(=O)(=O)Nc3ccc(O)cc3)cc12
-0.4	i	CCCc1[nH]nc2c1C(c1cccnc1)C(C#N)=C(N)O2 (configuration not stated)
1.7	i	CC/C(=N\NC(=O)c1ccc2c(c1)OCO2)C12CC3CC(CC(C3)C1)C2
2.1	i	O=C(NCc1ccc(F)cc1)c1nc(-c2cccs2)no1
-1.4	i	COc1ccc(NC(=O)C(=O)NCCN2CCN(C(=O)C(c3ccccc3)c3ccccc3)CC2)cc1

KCNQ2 inh baseline	KCNQ2 inh	SMILES
-0.04*	-8.8*	COC(=O)NN1C(=O)C(c2ccccc2)=C(c2ccc(Cl)cc2)C1=O
0.69	i	CC1(C)C2CCC1(C)C(NCC(O)COc1ccc(C#N)cc1)C2 (configuration not stated)
-0.53	i	COc1cc(CC(=O)OCC(=O)Nc2ccc([N+](=O)[O-])cc2)cc(OC)c1OC
-1.6	i	COc1ccc(C(C)=O)cc1CSc1nnc(SCc2cc(C(C)=O)ccc2OC)s1
0.04	i	COc1ccccc1NC(=O)CN1C(=O)COc2ccc(S(=O)(=O)N3CCC(C)CC3)cc21
0.94	i	COc1ccccc1/C=C/C=N\N1CCN(Cc2ccccc2Cl)CC1
-0.29	i	COc1ccc(OCCSc2nnc(CCNC(=O)c3ccc(OC)cc3)n2C)cc1
-2.4	i	CCOC(=O)c1c(C)[nH]c(C)c1S(=O)(=O)N(C)CC(=O)N(C)Cc1ccccc1
2.2	i	CCCc1cc(C(=O)N2CCCC(N3CCN(c4ccccc4F)CC3)C2)n(C)n1 (configuration not stated)
-0.6	i	Cc1nnc2ccc(-c3cccc(NS(=O)(=O)c4ccccc4[N+](=O)[O-])c3)nn12

Screens: PubChem BioAssay, Johns Hopkins Ion Channel Center

The list is partial; the hit share may differ from the screen's.
